Assay outcomes from PubChem.
IMPase inh: cell-permeable inhibitors of inositol monophosphatase (IMPase) | P97697 | CHO-M1 cells, IP1 accumulation, HTRF TR-FRET ratio | inhibition (IP1 accumulation), % at 46.1 µM | 120,000 tested, under 10 active; active = well fitted curve in the direction sought with a large enough effect in the signal ratio, not every such curve was filed as active; inconclusive = small, poorly fitted or top-dose-only effect, or a change in a side signal; inactive = no such curve, though single readings can be large or run the other way; the % refers to the signal ratio;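 also: cells stimulated with carbachol in lithium chloride buffer; plate controls were DMSO basal wells for no effect and reference inhibitor wells for full effect; higher means more IMPase inhibition seen as more IP1 and lower FRET ratio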
Target sequence (P97697 whole entry, looked up): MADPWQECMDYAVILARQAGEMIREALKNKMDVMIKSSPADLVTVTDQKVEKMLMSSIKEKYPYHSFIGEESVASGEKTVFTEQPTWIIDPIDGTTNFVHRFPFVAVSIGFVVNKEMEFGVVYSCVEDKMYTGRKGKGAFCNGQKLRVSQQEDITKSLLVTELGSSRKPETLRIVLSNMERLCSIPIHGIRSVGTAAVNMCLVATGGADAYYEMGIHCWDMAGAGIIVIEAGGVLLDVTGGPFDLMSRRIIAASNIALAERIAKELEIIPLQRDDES
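The IP-One HTRF competitive assay in carbachol-stimulated CHO-M1 cells quantifies cellular IP1. Compounds spanned up to 46 uM final, and activity is expressed as AC50 from concentration-response fits of the ratio and donor data.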
ALOX12 inhib: 12-hLO (ALOX12) enzyme inhibition. P18054. purified 12-hLO, xylenol orange hydroperoxide absorbance. Potency, µM (series often up to 57.1 µM), for the others: at the top dose activity change, negative = inhibition, most hits filed as inhibitors. 0.12% of 150,000 active. AID 1452; active = well fitted inhibition curve with a large enough effect; inconclusive = small, poorly fitted or top-dose-only effect; also: potency is read from the fitted curve at half-maximal effect; nearly all actives have a fitted effect of over 55% in size; many of its hits are not listed in these tables
Target sequence (P18054 whole entry, looked up): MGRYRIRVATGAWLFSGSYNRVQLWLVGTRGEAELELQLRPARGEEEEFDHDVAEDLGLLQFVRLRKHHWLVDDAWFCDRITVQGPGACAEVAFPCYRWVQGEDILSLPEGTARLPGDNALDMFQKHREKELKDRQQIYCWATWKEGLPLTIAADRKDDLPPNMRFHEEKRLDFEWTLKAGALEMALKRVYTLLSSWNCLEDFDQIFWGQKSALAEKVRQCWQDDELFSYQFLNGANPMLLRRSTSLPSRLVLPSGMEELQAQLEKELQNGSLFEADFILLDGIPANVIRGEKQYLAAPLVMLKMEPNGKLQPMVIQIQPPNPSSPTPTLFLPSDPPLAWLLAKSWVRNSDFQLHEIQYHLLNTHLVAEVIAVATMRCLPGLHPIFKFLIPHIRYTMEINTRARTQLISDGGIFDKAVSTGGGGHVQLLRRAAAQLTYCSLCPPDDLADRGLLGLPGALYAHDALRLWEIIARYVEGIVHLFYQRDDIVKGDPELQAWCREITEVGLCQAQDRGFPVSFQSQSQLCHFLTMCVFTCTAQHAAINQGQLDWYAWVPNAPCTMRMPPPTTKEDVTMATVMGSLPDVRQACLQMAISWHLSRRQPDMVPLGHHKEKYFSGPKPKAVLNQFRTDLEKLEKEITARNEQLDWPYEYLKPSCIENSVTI
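Purified human 12hLO (150 nM final) was preincubated with compounds for 15 min at room temperature in 25 mM Hepes pH 7.0, 0.01% Triton X-100, then reacted with 40 uM arachidonic acid for 30 min. Hydroperoxide was detected with ferrous iron/xylenol orange.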
PNC inhibitor: blocks assembly of the perinucleolar compartment. PC3M PTB-GFP, PNC prevalence imaging, 16 h; hits give low values. activity change (PNC), negative = inhibition, % at 10 µM. 3.1% of 140,000 active. AID 2417;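 active = readout at or below -70, meaning at least 70% loss of cells showing the perinucleolar compartment, a nuclear body marking cancer cells; inconclusive = readout between -30 and a set limit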;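 also: plate controls were DMSO wells for no effect and camptothecin positive control wells for full effect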
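Compounds are pinned in duplicate onto adhered PC3M cells stably expressing GFP-tagged PTB and incubated 16 h at 37 C. Cells are then fixed, nuclei stained with Hoechst, and PNC-positive cells counted.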
Starred values were filed as active, the others as inactive; ? = inconclusive; . = not tested or not shown; [ ] = remark or other dose. Unless noted, % is scaled to controls: 0 for no effect and ±100 for the full control effect. A portion of the library, so the mix of outcomes need not match the whole.

smiles	IMPase inh	ALOX12 inhib	PNC inhibitor
Cc1ccc(C)c(NC(=O)CCc2ccc(S(=O)(=O)NC3CCCCC3)cc2)c1	4.0	1.0%	2.9
O=C(NCCN1CCCCCC1)C1CC(=O)N(CCc2ccccc2)C1 (stereo not drawn)	2.6	6.7%	-4.1
CCn1c(NC(=O)Nc2cccc(C)c2C)cc2sccc21	-5.8	-14.2%	10.0
CCn1c(COc2cccc(C)c2)nnc1SCC(=O)Nc1cccc(C(=O)O)c1	0.2	-1.1%	-24.2
CCOC(=O)N1CCN(C(=O)c2ccc3c(=O)n(CCOC)c(=O)[nH]c3c2)CC1	5.2	-1.3%	-21.1
COc1ccc(CNc2nc3c(c(=O)n(Cc4ccc(Cl)cc4)c(=O)n3C)n2C)cc1	10.6	?	?
CCOC(=O)c1cnc(SCC)[nH]c1=O	8.9	-2.8%	?
CC1(C)CC2(CC(c3cccs3)c3cc(Cl)c(O)cc3O2)NC(=S)N1 (stereo not drawn)	11.3	?	-14.2
Clc1cccc(Nc2ncnc3c2cnn3-c2ccccc2)c1	18.8	-8.1%	-10.2
CCN(CC)S(=O)(=O)c1cc(C(=O)n2cccn2)c(Cl)cc1Cl	2.1	-1.3%	?
Clc1ccc(-c2nnc(C3CCCCC3)o2)cc1	8.5	-2.7%	?
O=C(c1ccc(CSCc2ccccc2F)o1)N1CCN(c2ccc(N3CCOCC3)nn2)CC1	6.7	-5.8%	-9.9
COc1ccc(CCN2C(=O)c3[nH]nc(-c4ccccc4O)c3C2c2ccc(C)cc2)cc1OC (stereo not drawn)	6.6	-13.8%	78.1
COc1ccc(S(=O)(=O)Nc2ccc(S(=O)(=O)N3CCCCC3)cc2)cc1C	1.5	-26.5%	-0.2
Nc1c(-c2ccc(Cl)cc2)cnn1C1CCS(=O)(=O)C1 (stereo not drawn)	0.1	-0.4%	-26.5
CC1CN=C(N(Cc2ccccc2)C(=O)Nc2ccccc2)S1 (stereo not drawn)	0.5	0.9%	28.0
Cc1nc2ccc(NC(=O)NCc3ccco3)cc2s1	-9.3	-9.0%	48.9
COc1ccc(C2CC2/C(=N/OC(=O)c2cccs2)c2ccccc2)cc1 (stereo not drawn)	10.5	-5.2%	49.9
O=C1CC(N2CCC(c3nc4ccccc4[nH]3)CC2)C(=O)N1Cc1ccccc1 (stereo not drawn)	6.8	-7.6%	-14.8
C=CCn1c(=O)[nH]c2cc(C(=O)N3CCN(c4cc(C)ccc4C)CC3)ccc2c1=O	8.4	3.0%	17.3
CN(C)/C=C/C(=O)c1ccc(N2CCN(c3ncc(C(F)(F)F)cc3Cl)CC2)cc1	10.8	-9.6%	10.6
Cc1ccc(OCc2nnc(SCC(=O)Nc3ccc4c(c3)OCCO4)n2Cc2ccco2)cc1	12.2	-5.4%	31.7
CNc1oc(-c2cccc3ccccc23)nc1C#N	-29.1	-28.0%	44.7
COCCn1nnnc1C(c1ccccc1)N1CCN(Cc2ccc3c(c2)OCO3)CC1 (stereo not drawn)	13.0	-2.3%	-3.4
COCCn1c(SCc2cnc(-c3ccccc3)s2)nnc1-c1ccncc1	4.2	-0.1%	11.6
Cc1ccc(/C=N/n2c(C)n[nH]c2=S)o1	-5.1	6.6%	55.8
Cc1cc(=O)oc(C)c1C(=O)NCC1CCCO1 (stereo not drawn)	10.6	-3.2%	9.7
CCCc1nc(NCc2ccccn2)c2nnn(Cc3ccccc3F)c2n1	-4.6	-10.8%	?
CC(C)Sc1nc2sc3c(c2c2nnc(SCC(=O)NCc4ccco4)n12)CCCC3	-0.1	-2.0%	?
CC(=O)Nc1ccc(Oc2sc(C(=O)c3ccccc3)c(N)c2C#N)cc1	0.7	-21.2%	0.5
Cc1ccc2c(c1)C(=O)[C@]1(O)CCN(c3ccccc3)C1=N2	.	-6.0%	.
CC(C(=O)N1CCOCC1)N1C(=O)c2ccccc2C1=O (stereo not drawn)	6.3	-0.9%	-5.1
COC(=O)CSc1ncc(C#N)c(N)n1	-2.6	-0.3%	25.9
Cc1ccc(S(=O)(=O)NCCNC(=O)C2CCCNC2=O)cc1 (stereo not drawn)	13.9	-1.2%	30.7
COC(=O)c1ccccc1N(C)S(C)(=O)=O	15.2	-5.9%	1.4
Nc1c(-c2ccc(F)cc2)cnn1C1CCS(=O)(=O)C1 (stereo not drawn)	8.9	-3.6%	9.5
CC1CN(C2CC(C)(C)NC(C)(C)C2)CCC1=O (stereo not drawn)	-6.7	-2.1%	11.1
CS(=O)(=O)N1CC(C(=O)NC2CC2)Oc2ccc(Cl)cc21 (stereo not drawn)	-1.5	-1.2%	11.3
COc1ccc(OCCCC(=O)Nc2ccc3c(c2)OCO3)cc1	9.7	-5.9%	30.2
COc1cccc(C(=O)Nc2cccc(OC(C)=O)c2)c1	0.6	7.8%	8.8
Cc1ccc(S(=O)(=O)N2CCOCC2)cc1NC(=O)COC(=O)CCC(=O)c1cccs1	2.0	-0.4%	42.3
C=CCN(CC=C)S(=O)(=O)c1ccc(NC(=S)NC(=O)/C=C/c2ccccc2)cc1	?	?	-19.6
CCCCOc1ncnc2c1[nH]c1ccc(F)cc12	6.5	-2.5%	-25.9
COc1cccc(-c2cc(C(=O)Nc3ccc4c(c3)OCCO4)c3ccccc3n2)c1	-2.6	2.3%	?
C=CCn1c(COc2ccccc2)nnc1SCC(=O)Nc1ccc(S(N)(=O)=O)cc1	18.0	-2.2%	-19.6
CCOc1ccccc1CNc1nc2nc3c(c(=O)n2[nH]1)CCC3	1.7	-4.3%	-2.9
COc1cc(/C=C(/C#N)c2nc3ccccc3[nH]2)ccc1OC(=O)c1ccco1	-3.4[1.84 µM]	-0.2%	-18.3
Cc1ccccc1NC(=S)NC(=O)CCc1ccccc1	-1.9	?	60.8
O=C(N/N=C1\CCCc2ccccc21)C(O)c1ccccc1 (stereo not drawn)	0.3	4.6%	-8.1
Cc1ccc(/C=N\n2c(-c3ccccc3)n[nH]c2=S)s1	10.4	-5.9%	-27.2
Cc1ccc([N+](=O)[O-])cc1-c1ccc2cccc(C)c2n1	13.4	6.0%	10.3
Cn1c(-c2ccc3c(c2)OCO3)cnc1NC(=O)CCC(=O)NCCc1ccccc1	-4.9	-1.0%	-13.0
CCn1c(SCC(=O)N2CCN(c3ccccc3F)CC2)nnc1-c1ccoc1C	1.8	14.8%	-12.5
CC(C#CCN1CCCCC1)OCCOCc1ccccc1 (stereo not drawn)	21.1	0.9%	27.7
CCN(CC)C(=O)CSc1nc(O)cc(=O)n1C	13.6	1.9%	42.5
COc1nc(NCCc2ccc(OC)c(OC)c2)nc(OC)n1	-2.8	-0.9%	-7.5
O=C(Cn1nnc(-c2ccccc2)n1)Nc1ccc2c(c1)OCO2	2.5	-1.0%	48.4
COc1ccc(-c2nc3c(n2O)CCC/C3=N\O)cc1	8.0	6.9%	-11.1
Cc1c(Cl)cccc1N1C(=O)CC(N(O)c2ccccc2)C1=O (stereo not drawn)	3.7	-14.1%	41.3
COc1cc(C(=O)NCc2cccc3ccccc23)ccc1OCc1ccccc1	11.8	-5.6%	?

Single records (already shown):
Listed for COc1cc(/C=C(/C#N)c2nc3ccccc3[nH]2)ccc1OC(=O)c1ccco1 → IMPase inh: -3.4[1.84 µM]; ALOX12 inhib: -0.2%; PNC inhibitor: -18.3
Listed for Cc1nc2ccc(NC(=O)NCc3ccco3)cc2s1 → IMPase inh: -9.3; ALOX12 inhib: -9.0%; PNC inhibitor: 48.9
Listed for COc1ccc(OCCCC(=O)Nc2ccc3c(c2)OCO3)cc1 → IMPase inh: 9.7; ALOX12 inhib: -5.9%; PNC inhibitor: 30.2

Reformatted field by field: part of the list above.
compound: COc1cccc(-c2cc(C(=O)Nc3ccc4c(c3)OCCO4)c3ccccc3n2)c1
  IMPase inh: -2.6; ALOX12 inhib: 2.3%; PNC inhibitor: ?

compound: C=CCn1c(COc2ccccc2)nnc1SCC(=O)Nc1ccc(S(N)(=O)=O)cc1
  IMPase inh: 18.0; ALOX12 inhib: -2.2%; PNC inhibitor: -19.6

(more compounds)
smiles	IMPase inh	ALOX12 inhib	PNC inhibitor
CCOC(=O)COc1cc2c3c(c(=O)oc2cc1C)CCCC3	10.9	0.9%	-5.3
Cc1sc(NC(=S)NC(=O)c2ccc(C(C)(C)C)cc2)c(C#N)c1C	-3.5	-6.3%	?
O=C(CCNC(=O)c1ccccc1Cl)Nc1ccc2c(c1)OCO2	-3.2	2.1%	10.6
O=C(C(c1ccccc1)N1CCOCC1)N1CCOCC1 (stereo not drawn)	19.0	-2.6%	-20.0
Cc1ccc(C2NC(=O)c3ccccc3N2)s1 (stereo not drawn)	-14.1	6.3%	-5.5
CSCC[C@@H](C(=O)O)N1Cc2ccccc2C1=O	2.5	-11.1%	-20.0
COc1cc(C)c(S(=O)(=O)NCc2ccc3c(c2)OCO3)cc1C	-3.9	2.4%	-11.9
COc1ccc(CNc2nc(-c3cccnc3)nn2C(=O)c2ccco2)cc1	4.7	-11.1%	21.5
Cc1ccc(/C=N/Nc2ncc(Cl)cc2Cl)s1	9.7	-8.3%	5.8
COC(=O)CCN(C(=O)C12CC3CC(CC(C3)C1)C2)c1ccccn1	-3.6	-2.9%	24.9
Cc1n[nH]c(=O)nc1N1CCc2ccccc2C1	9.1	-7.9%	-8.9
CC(=O)Cc1nsc(NC(=O)c2cc(-c3ccccc3Cl)oc2C)n1	-4.3	-0.4%	35.6
Cc1nc(N2CCN(C(=O)c3ccco3)CC2)c2c3c(sc2n1)CCC3	1.6	-4.6%	-5.6
Cc1cc(C)c(S(=O)(=O)Nc2cccnc2)c(C)c1	1.6	-4.0%	15.6
Cc1nn(-c2ccc(Cl)cc2)c2[nH]c(=O)c(CNCc3ccc4c(c3)OCO4)cc12	6.3	-0.6%	?
Nn1c(SCc2cccc(C(F)(F)F)c2)nnc1-c1ccco1	4.7	-7.3%	9.4
Cc1ccc(Cl)cc1N1CCN(Cc2nnnn2Cc2ccco2)CC1	13.0	-11.4%	36.9
COCCn1c(=O)[nH]c2cc(C(=O)NCCN3CCN(c4ccccc4)CC3)ccc2c1=O	0.0	-3.9%	-0.8
O=S(=O)(c1ccccc1Cl)N1CCCC(c2nc(-c3cccnc3)no2)C1 (stereo not drawn)	3.7	-6.2%	9.8
Cc1ccc2nc3c(nc2c1)-c1ccccc1C3=O	-5.0	2.7%	11.7
CSc1ccccc1NC(=S)Nc1ccccc1C(F)(F)F	2.5	5.6%	-4.0
CCOc1cc2[nH]c(=S)n(Cc3ccc(C)o3)c(=O)c2cc1OCC	-5.4	-8.4%	-4.1
Cc1cc(=O)n2[nH]c(-c3ccc(F)cc3)cc2n1	12.6	-2.2%	5.9
N#Cc1cccc(NC(=O)N2CCC3(CC2)CCN(C(=O)c2cnccn2)CC3)c1	.	2.3%	.
CC1(C)OC(=O)C(C(c2ccccc2)C(C#N)C(N)=O)=C(O)O1 (stereo not drawn)	4.3	2.6%	15.6
S=c1nc(-c2ccccc2)n(CCCN2CCOCC2)c2c1CCCC2	6.9	-2.4%	31.0
Cc1ccnc2nc(C(=O)N3CCN(S(=O)(=O)c4ccccc4)CC3)nn12	4.3	0.0%	7.6
O=C(CCCC(=O)OCC1CCCO1)OCC1CCCO1 (stereo not drawn)	2.7	0.3%	9.1
O=C(CN1CCOCC1)Nc1ncc(Br)cc1Br	?	3.4%	41.1
CC1=C(C(N)=O)C(c2cccc(OCc3ccccc3)c2)n2nnnc2N1 (stereo not drawn)	5.0	-2.8%	30.3
